KCNQ2 block: KCNQ2 potassium channel inhibitors, primary screen, cell-based, CHO-K1, FluxOR thallium flux, B-score (AID 2156) | Potassium voltage-gated channel subfamily KQT member 2 (Rattus norvegicus), O88943 | 20 min; active compounds read low; only compounds with negative scores are shown here; some inactives read as strong as hits | B-score at 10 µM | hit rate 1.1% among 310,000;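 active = fluorescence ratio B-score at most minus 3 library SDs, with starting brightness B-score within 2 library SDs, cut at about -5.5 in these data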
Target sequence (O88943 whole entry, looked up): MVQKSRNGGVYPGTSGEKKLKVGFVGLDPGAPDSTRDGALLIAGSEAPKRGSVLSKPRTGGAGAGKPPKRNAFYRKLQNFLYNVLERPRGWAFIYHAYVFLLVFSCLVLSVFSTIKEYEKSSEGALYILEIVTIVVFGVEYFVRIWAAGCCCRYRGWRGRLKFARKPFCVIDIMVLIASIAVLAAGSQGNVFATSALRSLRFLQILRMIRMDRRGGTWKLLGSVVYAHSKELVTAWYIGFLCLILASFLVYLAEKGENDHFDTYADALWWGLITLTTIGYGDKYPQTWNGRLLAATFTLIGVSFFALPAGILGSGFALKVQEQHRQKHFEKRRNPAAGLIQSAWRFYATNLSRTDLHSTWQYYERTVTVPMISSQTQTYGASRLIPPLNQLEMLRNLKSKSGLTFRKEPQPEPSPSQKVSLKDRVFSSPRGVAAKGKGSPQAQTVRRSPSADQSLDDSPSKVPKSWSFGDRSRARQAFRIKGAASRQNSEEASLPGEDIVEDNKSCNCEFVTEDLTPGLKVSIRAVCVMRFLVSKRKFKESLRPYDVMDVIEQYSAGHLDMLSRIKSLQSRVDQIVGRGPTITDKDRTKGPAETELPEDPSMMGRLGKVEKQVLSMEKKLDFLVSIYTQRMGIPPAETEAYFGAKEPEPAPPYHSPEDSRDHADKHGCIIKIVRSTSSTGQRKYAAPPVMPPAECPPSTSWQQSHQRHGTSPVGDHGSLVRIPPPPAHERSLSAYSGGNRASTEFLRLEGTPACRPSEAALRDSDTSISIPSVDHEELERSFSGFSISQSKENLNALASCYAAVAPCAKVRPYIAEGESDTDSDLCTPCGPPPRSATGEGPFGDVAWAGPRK
KCNQ2 block baseline: second read-out of KCNQ2 block, no call of its own (marks repeat the call); B-score; measured here: initial fluorescence intensity artifact check;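 brightness before thallium and not channel activity; 0 = typical well and far values either way flag optical interference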
An asterisk follows results filed as active.

Screening COC(=O)c1ccc(C2C(Oc3ccc(OC)cc3)C(=O)N2CCc2ccc(F)cc2)cc1 (stereo not given) returned KCNQ2 block inactive and KCNQ2 block baseline -0.71.
COC(=O)CCC(=O)OC1(C)C(=O)C2=CN(CCc3c[nH]c4ccccc34)C(c3ccc(OC)cc3)=CC2=C(Br)C1=O (stereo not given) was read as KCNQ2 block inactive and KCNQ2 block baseline 2.7.
COc1ccc(NC(=O)CCC(=O)Nc2cc(OC)c(NC(=O)c3ccco3)cc2OC)c(OC)c1 was read as KCNQ2 block inactive and KCNQ2 block baseline 0.65.
For CC1C(=O)CCN(C(C)C)C1C (stereo not given) the results were KCNQ2 block inactive and KCNQ2 block baseline 1.7.
For Cc1cc(C(=O)Nc2cccc3ncccc23)no1 the results were KCNQ2 block inactive and KCNQ2 block baseline -0.21.
`Cc1ccc(Sc2ccc(NC(=O)c3ccc(S(C)(=O)=O)cc3Cl)cc2)cc1` gave KCNQ2 block -8.8* and KCNQ2 block baseline -2.2*.
For CC(=O)Oc1ccc2ccccc2c1C(NC(=O)Cc1ccccc1)c1ccc(Cl)cc1 (stereo not given) the results were KCNQ2 block inactive and KCNQ2 block baseline 0.02.
`Cc1cccnc1NC(=O)C1CCN(S(=O)(=O)c2c(C)noc2/C=C/c2ccco2)CC1` gave KCNQ2 block inactive and KCNQ2 block baseline -0.1.
Screening Cc1nc(NCCc2ccccc2F)c(C#N)c(C)c1[N+](=O)[O-] returned KCNQ2 block inactive and KCNQ2 block baseline 1.1.
For CCCC(CCC)C(=O)Oc1cc(C)[nH]c(=O)c1[N+](=O)[O-] the results were KCNQ2 block inactive and KCNQ2 block baseline -2.
Screening O=C(CN1CCOc2ccccc21)NCc1ccc(F)cc1 returned KCNQ2 block inactive and KCNQ2 block baseline -1.2.
`C=CCC(C(=O)c1ccccc1)[N+](C)(C)CC=C` (stereo not given) gave KCNQ2 block inactive and KCNQ2 block baseline 0.02.
Screening CCCc1cc(=O)oc2cc(C)cc(OC(C)C(=O)NCc3ccncc3)c12 (stereo not given) returned KCNQ2 block inactive and KCNQ2 block baseline 0.65.
`Clc1ccc(/C=N/NC(=Nc2ccccc2)c2ccccn2)c(Cl)c1` gave KCNQ2 block -8.2* and KCNQ2 block baseline -0.46*.
For O=C(Nc1ccccc1Cl)N1CCSc2ccccc21 the results were KCNQ2 block inactive and KCNQ2 block baseline 0.06.
For CCOC(=O)c1cc(-c2nnc(-c3ccc(Oc4ccccc4)cc3)o2)c(C)nc1C the results were KCNQ2 block inactive and KCNQ2 block baseline 0.09.
For CCN(CCO)Cc1csc2ccc(Cl)cc12 the results were KCNQ2 block inactive and KCNQ2 block baseline -1.8.
Screening CCOc1ccccc1CN1CCNC(=O)C1CC(=O)NCc1cc(C)n(C)n1 (stereo not given) returned KCNQ2 block inactive and KCNQ2 block baseline -1.1.
`Cc1cc(NCc2ccccn2)n2nc(C)c(-c3ccccc3)c2n1` gave KCNQ2 block inactive and KCNQ2 block baseline -0.07.
O=C(NCc1ccco1)C(c1ccncc1)N(CCC1=CCCCC1)C(=O)Cn1nnc2ccccc21 (stereo not given) was read as KCNQ2 block inactive and KCNQ2 block baseline 0.23.
For COc1cc(C(=O)OCC(=O)c2cc(C)n(CC3CCCO3)c2C)ccc1OCC(=O)N1CCOCC1 (stereo not given) the results were KCNQ2 block inactive and KCNQ2 block baseline -0.01.
Cc1cc(Br)ccc1NC(=O)CN(C)C(=O)CN1C(=O)NC2(CCCC2)C1=O was read as KCNQ2 block inactive and KCNQ2 block baseline 0.82.
Screening Cc1ccc(NC(=O)COC(=O)CCc2ccc(S(=O)(=O)N3CCOCC3)cc2)cc1C returned KCNQ2 block inactive and KCNQ2 block baseline 1.6.
Screening Cc1cccc(COc2ccc(/C(O)=C3\C(=O)C(=O)N(CCN(C)C)C3c3ccncc3)cc2)c1 (stereo not given) returned KCNQ2 block inactive and KCNQ2 block baseline 0.25.
`CC1CC1C(=O)Nc1cc(S(=O)(=O)N2CCOCC2)ccc1N1CCCC1` (stereo not given) gave KCNQ2 block inactive and KCNQ2 block baseline 0.21.
`Cc1ccc(SCC(=O)c2ccc[nH]2)cc1` gave KCNQ2 block inactive and KCNQ2 block baseline -0.08.
For CCCCC(=O)Nc1ccc(C(=O)c2ccccc2)cc1 the results were KCNQ2 block inactive and KCNQ2 block baseline -0.58.
For COc1cc(NC(=O)Cc2cccc3ccccc23)c(C(=O)O)cc1OC the results were KCNQ2 block inactive and KCNQ2 block baseline 0.84.
`CCOC(=O)c1[nH]c(C)c(C(=O)NCCc2ccc(OC)cc2)c1C` gave KCNQ2 block inactive and KCNQ2 block baseline -0.68.
CC/C(=N/NC(=O)CCC(=O)Nc1ccccc1OC)c1ccccc1 was read as KCNQ2 block inactive and KCNQ2 block baseline 1.7.
Cc1cc(C)n(C2CC(=O)N(c3ccccc3)C2=O)n1 (stereo not given) was read as KCNQ2 block inactive and KCNQ2 block baseline -0.53.
For CCOc1ccc(C(=O)NCC(=O)N2CCN(C/C=C/c3ccccc3)CC2)cc1OCC the results were KCNQ2 block inactive and KCNQ2 block baseline -0.1.
CCOC(=O)N1CCN(c2ncnc3c2cnn3-c2ccc(Cl)cc2)CC1 was read as KCNQ2 block inactive and KCNQ2 block baseline 0.79.
For COc1ccc(-c2csc(NC(=O)CN3C(=O)NC4(CCCC4)C3=O)n2)cc1OC the results were KCNQ2 block inactive and KCNQ2 block baseline -3.4.
Cc1n[nH]c(C)c1CN(C)C(=O)C1CCC(=O)N(CC2CCCCC2)C1 (stereo not given) was read as KCNQ2 block inactive and KCNQ2 block baseline -2.9.
Cc1cc(NC(=O)CSc2ccc(F)cc2)no1 was read as KCNQ2 block inactive and KCNQ2 block baseline 0.04.
`COc1ccc(CN(C)C(=O)c2ccc(COc3ccccc3)cc2)c(OC)c1` gave KCNQ2 block inactive and KCNQ2 block baseline 0.04.
For CCN(CC)c1ccc(C(=O)c2cnc(/N=C/N(C)C)s2)cc1 the results were KCNQ2 block inactive and KCNQ2 block baseline -0.54.
`O=C(c1cnn2c(C(F)F)cc(-c3ccccc3)nc12)N1CCc2ccccc2C1` gave KCNQ2 block -6.3* and KCNQ2 block baseline -2.3*.
For O=S(=O)(NC1CCN(Cc2ccccc2)CC1)c1cccc2cccnc12 the results were KCNQ2 block inactive and KCNQ2 block baseline 0.7.
Cc1ccc(S(=O)(=O)NCC2CCC(C(=O)NCc3ccco3)CC2)cc1 (stereo not given) was read as KCNQ2 block inactive and KCNQ2 block baseline 0.77.
For O=C(c1ccc(=O)oc1)N1CCN(C(c2ccccc2)c2ccccc2)CC1 the results were KCNQ2 block inactive and KCNQ2 block baseline -0.02.
`Cc1ccc(NC(=O)CCC(=O)NNC(=O)COc2ccc([N+](=O)[O-])cc2)cc1C` gave KCNQ2 block inactive and KCNQ2 block baseline -0.93.
For CC1CCCCC1NC(=O)CN1CCC(O)(c2ccc(F)cc2)CC1 (stereo not given) the results were KCNQ2 block inactive and KCNQ2 block baseline 1.3.
For COc1ccc(/C=N/Nc2cn[nH]c(=O)c2Cl)cc1 the results were KCNQ2 block inactive and KCNQ2 block baseline -0.34.

Three structures from above, sorted by molar mass, lowest first:
For CCN(CC)c1ccc(C(=O)c2cnc(/N=C/N(C)C)s2)cc1 the results were KCNQ2 block inactive and KCNQ2 block baseline -0.54.
`Cc1cccnc1NC(=O)C1CCN(S(=O)(=O)c2c(C)noc2/C=C/c2ccco2)CC1` gave KCNQ2 block inactive and KCNQ2 block baseline -0.1.
COC(=O)CCC(=O)OC1(C)C(=O)C2=CN(CCc3c[nH]c4ccccc34)C(c3ccc(OC)cc3)=CC2=C(Br)C1=O (stereo not given) was read as KCNQ2 block inactive and KCNQ2 block baseline 2.7.

Additional entries:
Screening Nc1ncc(-c2ccccc2)c(-c2ccc(OCc3ccccc3)cc2O)n1 returned KCNQ2 block inactive and KCNQ2 block baseline -0.01.
`COCC(=O)N1CCC(Oc2ccc(C(=O)NC(C)c3nc(C)sc3C)cc2)CC1` (stereo not given) gave KCNQ2 block inactive and KCNQ2 block baseline 0.86.
Screening COC(=O)c1ccc2c(=O)n(Cc3ccc4c(c3)OCO4)c(SCC(=O)N3CCCC3)nc2c1 returned KCNQ2 block inactive and KCNQ2 block baseline -2.9.
For CCN1CCN(C(=O)C2CCN(c3nnc(-n4c(C)ccc4C)s3)CC2)CC1 the results were KCNQ2 block inactive and KCNQ2 block baseline -1.2.
`CCCCOP(=O)(c1ccc(N(C)C)cc1)C(Nc1ccccc1)c1ccccc1` (stereo not given) gave KCNQ2 block inactive and KCNQ2 block baseline -1.1.
`COc1ccccc1NS(=O)(=O)c1ccc(NC(=O)CCNC(=O)c2ccco2)cc1` gave KCNQ2 block inactive and KCNQ2 block baseline -0.47.
COc1nc(OC)nc(Oc2ccc([N+](=O)[O-])cc2Cl)n1 was read as KCNQ2 block inactive and KCNQ2 block baseline -0.12.
For Cc1ccccc1CNCc1ccc2c(c1)OCO2 the results were KCNQ2 block inactive and KCNQ2 block baseline 1.2.
For O=C(c1cccc(C(F)(F)F)c1)N(c1ccccn1)C1CCCCC1 the results were KCNQ2 block inactive and KCNQ2 block baseline 0.07.
Screening CCOC(=O)c1cnc(SCC(=O)N2CCC(C(N)=O)CC2)nc1N returned KCNQ2 block inactive and KCNQ2 block baseline -0.54.
`CCOC(=O)C1C(=O)C(C(C)=O)C(=O)CC1CC(C)SCC` (stereo not given) gave KCNQ2 block inactive and KCNQ2 block baseline -0.23.
`COc1ccc(-c2cn3cccnc3n2)cc1NS(=O)(=O)c1ccccc1` gave KCNQ2 block inactive and KCNQ2 block baseline 0.57.
`O=c1c(/C=N\NS(=O)(=O)c2ccccc2)coc2ccc(Cl)cc12` gave KCNQ2 block inactive and KCNQ2 block baseline -1.6.
Screening COC(=O)C1=C(C)NC=C([N+](=O)[O-])C1c1ccc(OC)cc1 (stereo not given) returned KCNQ2 block inactive and KCNQ2 block baseline -1.9.
`COc1ccc(OCc2cc(C(=O)NC3CCOC(C)(C)C3)no2)c2ccccc12` (stereo not given) gave KCNQ2 block inactive and KCNQ2 block baseline 2.2.
Cc1ccc(C2=NN(C(=O)CCC(=O)O)C(c3cccc([N+](=O)[O-])c3)C2)cc1 (stereo not given) was read as KCNQ2 block inactive and KCNQ2 block baseline -0.81.
For CN1OC(c2ccccc2)=C(CO)C1c1ccccc1 (stereo not given) the results were KCNQ2 block inactive and KCNQ2 block baseline -0.93.
`COC(=O)CCC/C=C1/SCC(NC(=O)c2ccccc2)/C1=N/O` (stereo not given) gave KCNQ2 block inactive and KCNQ2 block baseline 1.5.
CCC(=O)Nc1cc(C(=O)OC(C(=O)c2ccc(C)c(C)c2)c2ccccc2)ccc1C (stereo not given) was read as KCNQ2 block inactive and KCNQ2 block baseline -1.3.
Screening COc1ccc(OC)c(NC(=O)CSc2ccc3ccccc3c2)c1 returned KCNQ2 block inactive and KCNQ2 block baseline 0.89.
Screening O=C(CSc1nnc(Cn2nnc3ccccc32)o1)Nc1cccc(Cl)c1 returned KCNQ2 block inactive and KCNQ2 block baseline 0.05.
`CC(=O)Cn1nnc2sc3c(c2c1=O)CCC(C(C)(C)C)C3` (stereo not given) gave KCNQ2 block inactive and KCNQ2 block baseline 0.42.
CC1CCN(C(=O)C2CC(c3ccc(F)cc3)=NO2)CC1 (stereo not given) was read as KCNQ2 block inactive and KCNQ2 block baseline 0.62.
For COc1ccc(-c2c(C)oc3c(CN4CCN(C)CC4)c(O)ccc3c2=O)cc1 the results were KCNQ2 block inactive and KCNQ2 block baseline 0.57.
`COc1ccccc1-c1nnc(NC(=O)c2ccc(S(=O)(=O)N(C)CC3CCCO3)cc2)o1` (stereo not given) gave KCNQ2 block inactive and KCNQ2 block baseline -0.84.
Cc1c(CN2CCCC(C(=O)c3cccc(Cl)c3)C2)c(=O)n(-c2ccccc2)n1C (stereo not given) was read as KCNQ2 block inactive and KCNQ2 block baseline -0.1.
CCCN1CCN(CCCNC(=O)C2CCCN(c3nnc(-n4cccc4)s3)C2)CC1 (stereo not given) was read as KCNQ2 block inactive and KCNQ2 block baseline 0.78.
`Cn1nnc(NC(=O)CSc2nnnn2-c2ccc(F)cc2)n1` gave KCNQ2 block inactive and KCNQ2 block baseline -0.09.
COc1ccccc1CC(=O)Nc1ccccc1O was read as KCNQ2 block inactive and KCNQ2 block baseline 0.25.
`CCn1c2ccccc2c2c3ncc4cccn4c3ccc21` gave KCNQ2 block inactive and KCNQ2 block baseline 2.8.

Among those listed so far, 6 contain a nitro group on carbon:
Screening Cc1nc(NCCc2ccccc2F)c(C#N)c(C)c1[N+](=O)[O-] returned KCNQ2 block inactive and KCNQ2 block baseline 1.1.
For CCCC(CCC)C(=O)Oc1cc(C)[nH]c(=O)c1[N+](=O)[O-] the results were KCNQ2 block inactive and KCNQ2 block baseline -2.
`Cc1ccc(NC(=O)CCC(=O)NNC(=O)COc2ccc([N+](=O)[O-])cc2)cc1C` gave KCNQ2 block inactive and KCNQ2 block baseline -0.93.
COc1nc(OC)nc(Oc2ccc([N+](=O)[O-])cc2Cl)n1 was read as KCNQ2 block inactive and KCNQ2 block baseline -0.12.
Screening COC(=O)C1=C(C)NC=C([N+](=O)[O-])C1c1ccc(OC)cc1 (stereo not given) returned KCNQ2 block inactive and KCNQ2 block baseline -1.9.
Cc1ccc(C2=NN(C(=O)CCC(=O)O)C(c3cccc([N+](=O)[O-])c3)C2)cc1 (stereo not given) was read as KCNQ2 block inactive and KCNQ2 block baseline -0.81.

(list continues)
For CCOC(=O)C1CCCN(CC(O)COCc2ccccc2OC)C1 (stereo not given) the results were KCNQ2 block inactive and KCNQ2 block baseline -0.86.
For Cc1nc(N2CCCCC2)sc1C=O the results were KCNQ2 block inactive and KCNQ2 block baseline 2.
For COc1ccc(N2CCN(CC(=O)N3CCC(C)CC3)CC2)cc1 the results were KCNQ2 block inactive and KCNQ2 block baseline 1.3.
`COc1ccccc1-c1c(C)nn2c(N)c(-c3ccccc3)cnc12` gave KCNQ2 block inactive and KCNQ2 block baseline 2.1.
For CCOC(=O)c1sc(=S)n(CC)c1NC(=O)c1ccccc1C the results were KCNQ2 block inactive and KCNQ2 block baseline 0.63.
For O=C(Cc1nc(-c2ccc(Br)s2)cs1)NCCN1CCOCC1 the results were KCNQ2 block inactive and KCNQ2 block baseline 0.39.

A portion of the library (hit frequency here may not be typical).
